Screens from PubChem BioAssay.
Six1-Eya2 inh: Six1/Eya2 interaction inhibition; Q15475+O00167; AlphaScreen GST-Six1/His-Eya2 binding, biochemical; active compounds read low; control for the full effect not named in the record; activity change, % (test concentration not listed); hit rate 0.56% among 360,000; AID 651725; in the data active = activity change below about -65%; inconclusive = about -30% to -65%; inactive = above about -30%; note: % is set by controls: 0 for no effect and ±100 for the full control effect
Target sequence (O00167 whole entry, looked up): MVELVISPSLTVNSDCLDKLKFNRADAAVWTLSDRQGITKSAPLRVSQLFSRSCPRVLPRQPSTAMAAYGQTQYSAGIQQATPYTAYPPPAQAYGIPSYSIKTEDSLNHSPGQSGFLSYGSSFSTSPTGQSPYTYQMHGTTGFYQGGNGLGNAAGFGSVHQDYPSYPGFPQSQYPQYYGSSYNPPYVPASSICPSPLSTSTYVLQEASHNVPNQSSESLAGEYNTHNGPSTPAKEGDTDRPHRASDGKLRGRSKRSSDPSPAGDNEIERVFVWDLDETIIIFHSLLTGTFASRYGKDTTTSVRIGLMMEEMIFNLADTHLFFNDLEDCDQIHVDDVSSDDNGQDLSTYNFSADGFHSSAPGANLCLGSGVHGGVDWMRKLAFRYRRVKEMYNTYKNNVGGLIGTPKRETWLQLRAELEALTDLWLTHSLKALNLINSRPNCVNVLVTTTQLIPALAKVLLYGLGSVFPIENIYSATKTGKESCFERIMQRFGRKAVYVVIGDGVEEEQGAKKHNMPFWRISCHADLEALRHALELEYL
Target sequence (Q15475 whole entry, looked up): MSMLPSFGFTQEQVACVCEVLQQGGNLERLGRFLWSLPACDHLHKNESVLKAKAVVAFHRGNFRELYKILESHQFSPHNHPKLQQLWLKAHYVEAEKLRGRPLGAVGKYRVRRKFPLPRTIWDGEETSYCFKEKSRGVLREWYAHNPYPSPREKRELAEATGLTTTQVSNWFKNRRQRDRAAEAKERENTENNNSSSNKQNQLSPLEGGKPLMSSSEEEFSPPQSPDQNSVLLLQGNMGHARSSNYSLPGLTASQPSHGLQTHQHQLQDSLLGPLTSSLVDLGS
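Six1/Eya2 binding was read as AlphaScreen signal after compounds were pinned into GST-Six1 plus His-tagged Eya2 (5X stock 250/500 nM) in pH 8.0 Tris/NaCl/TCEP buffer, beads added, then incubated 1 h, 37 C, dark.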
gsp antagonist: gsp mutant antagonism. gsp-mutant cells, cAMP HTRF, 30 min; control for the full effect not named in the record. Potency, µM (highest dose often 76.9 µM), without a hit: at the highest dose activity change, negative = inhibition, hits mostly inhibitors. hit rate 0.4% among 340,000. AID 624288; active = falling curve of any shape with a large fitted effect; inconclusive = falling curve, mostly with a smaller effect; inactive = flat or rising curve; cell line not stated here;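 note: intracellular cAMP measured with PDE inhibitor Ro 20-1724 present during compound exposure; potency is the fitted concentration of half-maximal effect; % is set by controls: 0 for no effect and ±100 for the full control effect; nearly all actives have a fitted effect of over 65% in size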
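Cells in G418 medium, seeded 16-24 h, 37C; buffer exchange to DPBS + 1 mM CaCl2, 0.5 mM MgCl2, 0.05% BSA; cpds in DMSO + […] (300 uM stock), 30 min 37C; HTRF cAMP detection.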
D2 PAM: positive allosteric modulators of human D2 dopamine receptor. P14416. DiscoveRx D2 beta-arrestin cells, luminescence, 90 min; 100% = 57 uM dopamine signal. potentiation, % (concentration not given with the values). hit rate 0.23% among 360,000. AID 624464; active = potentiation of 50% or more; inconclusive = 30% to 50%; inactive = 30% or less;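 note: compound concentration not given in the record; tested on top of an EC20 dose of dopamine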
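PathHunter D2 cells, attached overnight at 37 deg C, received compound in DMSO plus dopamine at EC20 (50 nM final) for 90 min at 37 deg C. Beta-arrestin recruitment was read as luminescence after 1 h with detection reagent at ambient temperature.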
D2 ag: agonists of human D2 dopamine receptor (beta-arrestin) | P14416 | hit rate 0.084% among 360,000 | DiscoveRx PathHunter D2 beta-arrestin, luminescence, 90 min; 100% = 57 uM dopamine signal | activation, % (test concentration not listed); in the data active = activation above about 40%; inconclusive = about 15% to 40%; inactive = below about 15%; note: compound concentration not given in the record; the text of the record calls up to 30% inactive
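DiscoveRx PathHunter D2 beta-arrestin cells (2,100/well) attached overnight, then compound-stimulated 90 min at 37 C in HBSS/10 mM HEPES/0.1% Tween-20 buffer; beta-galactosidase complementation read by luminescence after 1 h at ambient temperature. Dopamine 57 uM final (EC100) as control.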
CtBP-E1A inh: blocks the CtBP interaction with E1A; AlphaScreen GST-E1A/His-CtBP binding, 1536-well; active compounds read low; control for the full effect not named in the record; activity change, % (test concentration not listed); hit rate 0.49% among 340,000; in the data active means activity change below about -65%; inconclusive means about -30% to -65%; inactive means above about -30%; note: % is set by controls: 0 for no effect and ±100 for the full control effect
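Homogeneous bead-based format: GST-tagged E1A captured on glutathione donor beads, His-tagged CtBP on nickel acceptor beads; compounds precede bead addition by 2 h at 37 °C.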
gsp agonist: gsp mutant agonism; gsp mutant cells, cAMP HTRF, 30 min; control for the full effect not named in the record; Potency, µM (titrated, usually from 76.9 µM), for inactives: at the highest dose activation (cAMP increase), usual class: activators; hit rate 0.13% among 340,000; active = well fitted activation curve with a large enough effect; inconclusive = small, poorly fitted or top-dose-only effect, or another doubt; inactive = no such curve, though single readings can be large or run the other way; cell line not stated here;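 note: phosphodiesterase inhibitor Ro 20-1724 added with compounds to block cAMP breakdown; potency is the fitted concentration of half-maximal effect; nearly all actives have a fitted effect of over 60% in size; about a fifth of the inactives were tested at one dose only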
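Cells stably selected in G418 were plated at 2000/well, grown 16-24 hr, then given compounds in DMSO with the PDE inhibitor […] (300 uM solution added) for 30 min at 37C; cAMP was read by HTRF.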
An asterisk follows results filed as active; ? = inconclusive; · = no result given; [ ] = dose if it differs, or a comment.

entry	Compound	Six1-Eya2 inh	gsp antagonist	D2 PAM	D2 ag	CtBP-E1A inh	gsp agonist
1	CC1CCC2(CC1)NC(=O)N(CC(=O)NCCc1ccc(F)cc1)C2=O (configuration not stated)	3	0%	-2	-0.4	3	-26%
2	Cn1c(=O)[nH]c(=O)c2c1nc(Br)n2Cc1ccc(Cl)cc1	0	·	9	2.1	1	10%
3	COc1ccccc1C(=O)N/C(=C\c1ccc(Br)cc1)C(=O)NCCCO	6	-16%	-9	-0.8	2	14%
4	O=C(O)c1ccc(CN2C(=O)c3ccc(C(=O)O)cc3C2=O)cc1	7	3%	-6	2.5	5	31%
5	CCN(C[C@H]1N[C@@](Cc2ccccc2)(C(=O)OC)[C@H]2C(=O)N(C)C(=O)[C@@H]12)C(=O)C1CCCCC1	-2	2%	-6	-2.1	-20	·
6	Oc1ccc(/C=N/Nc2ccc(Cl)nn2)cc1O	?	7%	-6	?	·	9%
7	CC(C)C(NC(=O)CC12CC3CC(CC(C3)C1)C2)C(=O)O (configuration not stated)	14	9%	-8	-1.0	-9	5%
8	CC1CCCCN1C(=S)NC(=O)c1cccs1 (configuration not stated)	-2	4%	-8	-1.8	·	-7%
9	CC(=O)Nc1ccc(NC(=O)c2ccc(Cl)nc2)cc1	8	4%	3	2.1	·	13%
10	Nc1c(C(=O)NCc2ccc(F)cc2)c2nc3ccccc3nc2n1CCCN1CCOCC1	-21	15%	-7	5.6	-29	12%
11	CC1CN(C(=O)c2cccs2)CCN1C(=O)c1cccs1 (configuration not stated)	1	9%	-12	-1.4	6	1%
12	CCN(CC(=O)Nc1ccccc1OC)CC(=O)Nc1sccc1C#N	1	-18%	-25	-3.6	-5	7%[15.4 µM]
13	S=C1NC2CCCCC2N1 (configuration not stated)	0	11%	-7	-3.0	-24	-5%[15.4 µM]
14	N#Cc1ccc(Nc2nc(-c3ccccc3)c(C(=O)c3ccccc3)s2)cc1	7	·	-15	-7.5	1	·
15	C/C(=N\N(c1ccccc1)c1ccccc1)c1ccco1	?	-17%	-12	4.2	?	-19%
16	COc1ccc(CCNC(=O)COC(=O)c2cccn2C)cc1	-4	-14%	-2	-3.0	1	9%
17	COc1cc(CCCN2C(N)=NC[C@@H]2c2ccccc2)cc(OC)c1OC	6	9%	-14	-0.2	·	-47%
18	CC(C)N(C(=O)CSc1nn2c(=O)c(C(C)(C)C)nnc2s1)c1ccccc1	22	1%	-12	0.5	0	5%
19	Cc1ccc(C(=O)C(C)N(C(=O)c2ccc(Cl)cc2Cl)N2C(=O)CCCC2=O)cc1 (configuration not stated)	-15	1%	-7	0.1	10	2%[15.4 µM]
20	Cc1ccc(NC(=O)CC2SC(=NC3CCCCC3)NC2=O)cc1 (configuration not stated)	-8	-8%	-16	-2.7	0	-3%
21	CCN(CC)S(=O)(=O)c1ccc(NC(=O)C2COc3ccccc3O2)cc1 (configuration not stated)	16	0%	-7	0.0	0	30%
22	CCc1ccc(N2CC(C(=O)Nc3nc4ccc(S(C)(=O)=O)cc4s3)CC2=O)cc1 (configuration not stated)	9	-20%	-3	-2.2	2	-21%
23	O=C(COc1cccc(Cl)c1)NNC(=S)Nc1ccccc1	-2	-24%	-24	-1.5	0	-10%
24	Cc1c(NC(=O)CN2CCN(c3ccc(F)cc3)CC2)c(=O)n(-c2ccccc2)n1C	-6	10%	-4	-4.0	5	2%[15.4 µM]
25	Cc1cccc(N2CCN(C(=O)C3CCN(S(=O)(=O)c4cccnc4)CC3)CC2)c1C	-2	-16%	-6	-1.8	1	-8%
26	CCOc1cc(/C=C2\C(=N)N3N=C(CC)SC3=NC2=O)ccc1OCCOc1ccc(NC(C)=O)cc1	-3	?	-4	-3.5	-15	5%
27	CC(C)C(=O)c1cn(CC(=O)O)c2ccccc12	-6	-2%	-2	-1.9	-2	-2%[15.4 µM]
28	N#Cc1c(N)nc2c(c1-c1cccc(O)c1)CCCCCC2	-1	2%	1	-0.4	9	?
29	COc1ccc(N2C(=O)CC(N(Cc3ccco3)C(=O)CCC(=O)O)C2=O)cc1 (configuration not stated)	0	4%	0	2.4	·	4%
30	CCOc1nc(NCc2ccco2)nc(Nc2ccccc2F)n1	-1	15%	-2	3.9	0	-20%
31	COc1ccc(C(CNC(=O)c2cc3c(s2)CCC(C)C3)N2CCCC2)cc1 (configuration not stated)	-14	-7%	-8	-1.2	-10	-1%
32	CC(CNCC1CCCO1)COc1cccc2ccccc12 (configuration not stated)	-3	-6%[15.4 µM]	-22	1.2	14	?
33	O=C(NCc1ccc2c(c1)OCO2)c1nc(Cn2cc(Br)cn2)no1	4	10%	-4	2.1	1	?
34	CCOC(=O)CCC(=O)Nc1ccc([N+](=O)[O-])cc1C	10	7%	-3	0.8	2	-27%
35	CC(=O)Nc1cccc(NC(=O)CSc2nnc(NC(=O)c3ccco3)s2)c1	-9	2%	-19	-2.5	-7	?
36	CNS(=O)(=O)c1cc(NC(=O)c2cccc3cccnc23)ccc1C	?	-4%	3	4.5	-20	23%
37	O=C(NNC(=O)c1cc2ccccc2cc1O)NC1CCCCC1	2	-3%	-35	-5.0	-1	14%
38	O=C(COc1ccc(Br)cc1)NNC(=O)c1ccc(-n2cncn2)c([N+](=O)[O-])c1	-5	-20%	5	-3.4	·	8%
39	Cc1ccc(C(C#N)c2ccc3c(C(F)(F)F)cc(C(F)(F)F)nc3n2)cc1 (configuration not stated)	?	-12%	-13	-3.6	?	-35%[inhibitor]
40	CCN1c2ccccc2-c2nc3ccccc3n2C1c1ccco1 (configuration not stated)	-20	?	-13	-2.7	-17	1%
41	O=C(/C(=C/O)N=Nc1ccccc1)c1ccco1	-12	4%	-4	-0.1	-2	-3%
42	O=C(CCn1c(=O)oc2cc(Cl)ccc21)Nc1ccc(O)cc1	1	-8%	-12	1.8	1	-9%[15.4 µM]
43	c1ccc2[nH]c(CSc3nc4ccccc4o3)nc2c1	0	-3%	-24	-3.8	5	-36%[inhibitor]
44	Cc1cc(NC(=O)COc2nnc(-c3ccccc3)c3ccccc23)no1	0	-8%	-5	-2.5	?	-1%
45	O=C(NCc1ccccc1)c1ccc(CS(=O)(=O)c2ccc(Br)cc2)o1	-1	1%	-5	-1.5	3	1%
46	CCOc1ccc(C(=O)c2cc3ccc(O)cc3oc2=O)cc1	2	-18%	-1	-4.1	3	-13%
47	COc1ccc(NC(=O)CN(C)CC(=O)Nc2cccc3ccccc23)c(OC)c1	1	3%	-3	-2.8	-6	-1%
48	COc1ccc(C(=O)Oc2ccc(-c3nnco3)cc2)cc1S(=O)(=O)N1CCOCC1	-20	-3%	-22	-4.1	-10	22%[15.4 µM]

One compound at a time, as listed above. Values in the order: Six1-Eya2 inh | gsp antagonist | D2 PAM | D2 ag | CtBP-E1A inh | gsp agonist
O=C(NNC(=O)c1cc2ccccc2cc1O)NC1CCCCC1 as listed: 2 | -3% | -35 | -5.0 | -1 | 14%
CCN1c2ccccc2-c2nc3ccccc3n2C1c1ccco1 (configuration not stated) as listed: -20 | ? | -13 | -2.7 | -17 | 1%

The list continues:
entry	Compound	Six1-Eya2 inh	gsp antagonist	D2 PAM	D2 ag	CtBP-E1A inh	gsp agonist
49	CC(/C=N/N1CCN(c2ccccc2)CC1)=C\c1ccccc1	-3	6%	-11	-2.4	-1	-2%
50	COc1ccc(NC(=O)N/C=C/c2ccc(Cl)cc2)cc1	23	3%	-4	-2.3	3	?
51	CNC(=O)NC(=O)CSc1ccc(S(=O)(=O)N(C)C2CCCCC2)cn1	6	-9%	-15	-0.8	0	2%[15.4 µM]
52	Cc1cc2n(n1)C(c1ccc(O)cc1)Nc1ccccc1-2 (configuration not stated)	-26	-11%	-6	-0.9	?	?
53	N#Cc1cc2c(nc1SCC(O)CS(=O)(=O)Cc1ccc(Cl)cc1)CCCC2 (configuration not stated)	-15	-9%	3	-0.6	10	-13%
54	CCOC(=O)Cc1csc(NC(=O)C(NC(=O)C2CCCCC2)C(C)C)n1 (configuration not stated)	-3	6%	-9	-1.0	4	39%
55	CC(C)Cn1c(SCC(=O)N(C)c2c(N)n(Cc3ccccc3)c(=O)[nH]c2=O)nc2ccccc21	3	2%	-12	-2.1	-5	?
56	COc1ccc(Cl)cc1CNC[C@H]1O[C@@H](n2ccc(N)nc2=O)[C@H](O)[C@@H]1O	7	·	1	-1.7	-2	-38%
57	O=C(CCC(=O)N1CCSc2ccccc21)NCc1ccccc1	-4	3%	-4	2.5	2	-94%[inhibitor]
58	COCCNc1nc(NCc2cccc(OC)c2)c2sccc2n1	1	·	-7	-6.1	1	·
59	O=C(NCc1cccnc1)Nc1ccc(Cl)cc1	-1	11µM*	-13	-0.4	-9	29%
60	Oc1cccc(/C=C/c2ccc3cccc(O)c3n2)c1	-22	-4%	-4	-1.7	?	-3%[15.4 µM]

Individual results from the results shown:
COc1ccc(Cl)cc1CNC[C@H]1O[C@@H](n2ccc(N)nc2=O)[C@H](O)[C@@H]1O | gsp agonist: -38%
O=C(CCC(=O)N1CCSc2ccccc21)NCc1ccccc1 | gsp agonist: -94%[inhibitor]
Cc1cc2n(n1)C(c1ccc(O)cc1)Nc1ccccc1-2 (configuration not stated) | gsp antagonist: -11%
O=C(NCc1cccnc1)Nc1ccc(Cl)cc1 | Six1-Eya2 inh: -1

(cont.)
entry	Compound	Six1-Eya2 inh	gsp antagonist	D2 PAM	D2 ag	CtBP-E1A inh	gsp agonist
61	CC(=O)Nc1ccc(S(=O)(=O)Nc2nccc(/C=C/c3ccccc3F)n2)cc1	3	-1%	-5	2.1	·	1%[15.4 µM]
62	O=C(NCCN1CCCCC1)Nc1ccc([N+](=O)[O-])cc1	2	-1%	-14	-5.7	-7	17%[15.4 µM]
63	O=C(O)CC(CC(=O)O)c1ccsc1	4	12%	-5	-3.1	6	-7%
64	CC(=O)NC(CCC(=O)O)C(=O)O (configuration not stated)	11	-12%	3	-3.4	-7	·
65	CC1CCN(CC(=O)n2c3c(c4ccccc42)CCCC3)CC1	-10	-5%	-25	0.8	-13	-8%
66	Cc1noc(C)c1C(=O)Nc1ccc(S(=O)(=O)N2CCC(C)CC2)cc1	0	12%	-6	-4.6	-3	13%
67	CC1=NN(C(=O)c2ccccc2C)C(O)(c2ccc(Cl)cc2)C1 (configuration not stated)	1	9%	0	8.9	4	?
68	CC(=O)c1ccc(OCCNS(=O)(=O)c2ccc(-n3cnnn3)c(C)c2)cc1	5	-14%	-3	7.6	-6	-71%[inhibitor]
69	CC(C)OC(=O)CC1C(=O)NCCN1C(=S)NC(=O)c1ccc(F)cc1 (configuration not stated)	-5	-2%	-7	0.2	-4	-30%[inhibitor]
70	Cn1c(=NC(=O)CSCC(=O)N2CCCCC2)sc2ccccc21	1	-4%	-5	0.5	0	1%
71	Nc1ncnc2c1ccn2[C@H]1CN(Cc2ccc(Cl)cc2)C[C@@H](CO)O1	-2	·	-2	-3.3	0	·
72	NC(=O)c1ccccc1OCC(=O)N1CCc2ccccc2C1	17	-31%	1	0.0	0	-12%[15.4 µM]
73	O=C(c1cc(-c2ccccc2)nc2ccccc12)N1CCCc2ccccc21	-24	?	-14	-1.5	-1	-1%[15.4 µM]
74	COC(=O)c1cc2c(s1)-c1cc(F)ccc1OC2	2	13%	2	-5.0	9	-5%[15.4 µM]

Rows were taken by chance; any-hit rate near 1.4%.
